GIV Gai3 FP: GIV-Galpha-i interaction inhibition; 210,000 compounds, 0.42% hits; percent of control (FP), % (no concentration beside the values); AID 1224905; Galpha-i3/FITC-GIV peptide fluorescence polarization, 90 min; active compounds read low; scaled: aluminum fluoride 0%, vehicle 100%; P08753;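 active = replicate mean at 85% of control or lower, very high polarization wells dropped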;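 note: wells of about 15 µL received 100 nL stock; the first replicate is given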
Target sequence (P08753 whole entry, looked up): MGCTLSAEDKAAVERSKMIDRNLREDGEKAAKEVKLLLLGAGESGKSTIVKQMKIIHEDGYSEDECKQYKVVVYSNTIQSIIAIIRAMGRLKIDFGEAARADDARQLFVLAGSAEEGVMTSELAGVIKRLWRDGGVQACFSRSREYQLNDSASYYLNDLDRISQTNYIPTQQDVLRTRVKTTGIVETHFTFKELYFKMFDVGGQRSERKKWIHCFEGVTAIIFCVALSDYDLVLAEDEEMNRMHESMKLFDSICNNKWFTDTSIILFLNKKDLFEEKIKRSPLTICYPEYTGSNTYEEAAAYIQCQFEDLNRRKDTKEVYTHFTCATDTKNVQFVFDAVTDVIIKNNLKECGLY
HCMV UL50-53 inh: cytomegalovirus nuclear egress complex inhibition; inhibition, % (test concentration not listed); HTRF UL50-UL53 interaction, normalized percent inhibition; 190,000 compounds, 0.15% hits;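 active = both replicates at 50% or more, plus weaker picks with an unusually low signal ratio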;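 note: stock transfer was 100 nL into about 20 µL; 0% = negative control wells and 100% = wells with untagged competitor protein; inactives centre near -12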
Sa growth inh: inhibitors of Staphylococcus aureus growth at 42 °C; S. aureus RN4220 growth, OD600, 20 h; active compounds read low; relative growth, % (no concentration beside the values); 170,000 compounds, 0.53% hits; AID 720641;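 active = growth at 42 °C up to 50% and 20 or more points under that at 30 °C, or under 10% at both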;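 note: 300 nL library stock went into each well; scaled to the means of positive and negative controls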
Sa growth inh second temp: second read-out of Sa growth inh, no call of its own (marks repeat the call); relative growth, %; measured here: growth at 30 °C;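 optical density after 20 h as mean of two plates; 100% = untreated growth and lower means inhibition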
An asterisk follows results filed as active; · = not tested or not shown; & = joins results of further samples.

SMILES	GIV Gai3 FP	HCMV UL50-53 inh	Sa growth inh	Sa growth inh second temp
Cc1ccc(/C=C(\C#N)c2nc3ccccc3c(=O)[nH]2)cc1	106	9	97	88
CCN(CC)C(=S)NC(=S)c1ccc(C)cc1	101	5	81	92
Cc1cc(C)n2nc(SCC(=O)Nc3ccc(O)cc3)nc2n1	101	8	98	97
O=C(NC(c1ccc(F)cc1)c1nnc(-c2ccccc2)o1)c1cccc(Cl)c1 (stereo not drawn)	101	2	·	·
CCOC(=O)c1ccc(NC(=O)CSc2cn(CC(=O)N3CCCC3)c3ccccc23)cc1	103	·	98	82
CC(C)c1ccc(NC(=O)C2CCC(CNS(=O)(=O)c3cccs3)CC2)cc1 (stereo not drawn)	99	·	91	82
O=C(CSc1nnnn1Cc1ccccc1)NCCc1ccccc1	99	-2	104	84
O=C(/C=C/c1cn(CC(O)CN2CCCCCC2)c2ccccc12)c1ccccc1 (stereo not drawn)	124	-21	121	72
O=C(NCc1ccccn1)c1cc(-c2ccccc2F)no1	97	-19	101	83
O=C(CN1c2ccc(F)cc2-c2ccccc2S1(=O)=O)Nc1c(F)cccc1F	105	0	·	·
CCOc1ccc(N(CC)C(=O)Cc2c(C(=O)O)n(C)c3ccccc23)cc1	104	-13	·	·
CC(=O)c1cc2c(cc1NC(=O)c1cnn(-c3ccc(C)cc3)c1-n1cccc1)OCO2	100	·	100	94
Nc1nccc(-c2ccc(NC(=O)Nc3cccc(Cl)c3)cc2)n1	107	-4	100	98
O=C(NCC1CCN(Cc2ccc(F)cc2)CC1)c1cc2ccc3cccnc3c2[nH]1	101	·	80	85
CCOc1ccc(-c2ccc(SCc3nc(-c4ccc(Cl)cc4)no3)nn2)cc1	110	-6	·	·
CCC(C)NC(=O)C1CC1c1ccccc1 (stereo not drawn)	102	1	95	118
COc1ccc(N(Cc2cc3cc(OC)ccc3[nH]c2=O)C(=O)c2cccc(Cl)c2)cc1	103	-19	107	85
CC(C)CNC(=O)c1ccc(N(C)C)cc1	·	-4	108	76
Cc1cc(NS(=O)(=O)c2ccc(N3C(=O)C4C5C=CC(C5)C4C3=O)cc2)nc(C)n1 (stereo not drawn)	102	-5	94	95
CN(C)c1ccc(-n2c(CCC(=O)O)ccc2-c2ccccc2)cc1	105&98	-16&-15	93	89
COc1ccc(OCCSc2ncccn2)cc1	102	-7	115	91
O=C(CCC1CCCCC1)Nc1cc(Cl)ccc1N1CCOCC1	·	-16	108	89
COc1cccc(-c2cc(C(=O)NCCCn3ccnc3)c3ccccc3n2)c1	106	-54	·	·
Cc1ccc(S(=O)(=O)NCC(=O)OCc2nnc(-c3ccccc3)o2)cc1C	·	-30	107	75
O=c1oc(-c2cc3ccccc3s2)ns1	·	-17	81	63
O=C1CCC(=O)N1CNc1ccc(-c2ccccc2)cc1	·	-29	129	93
CN(C)C(=O)CSc1nnc(Nc2ccccc2)n1-c1ccccc1	102	4	90	99
Cc1nc(SC2CCCCC2=O)c(C#N)c(-c2cccs2)c1C(=O)Nc1ccccc1 (stereo not drawn)	102	-3	·	·
Cc1ccc(NC(=O)CN(C)C(=O)c2cccc(S(=O)(=O)N3CCOCC3)c2)cc1	·	-18	82	96
Cn1nccc1C(=O)Nc1ccc(CC#N)cc1	111	7	101	100
COc1ccccc1CCN=C(N)NS(C)(=O)=O	104	-18	100	90
Cc1cc(C)nc(NCn2c(=S)sc3ccccc32)n1	·	2	74	84
CC(OCCCN)c1ccccc1 (stereo not drawn)	·	-9	88	94
COc1cc(NC(=O)C2CC3C=CC2C3)cc(OC)c1OC (stereo not drawn)	·	11	102	101
CCCN1CCC(NCCc2ccccc2OC)CC1	108	1	102	107
Cc1sc2ncn3c(=O)n(CC(=O)NC4CCCC4)nc3c2c1C	106	6	·	·
Cc1ccc(CNC(=O)CSCc2nc(-c3cccc(C)c3)oc2C)cc1	107	-34	86	89
O=c1c2cc(NC(=S)NC3CCN(Cc4ccccc4)CC3)ccc2nc2n1CCCCC2	98	-17	102	94
CCOC(=O)c1c(NC(=O)c2cc(CC)on2)sc(C)c1C	108&105	8&-5	87	98
Cc1cccc(N2CCN(c3nc4ccccc4c4nc(-c5cccnc5)nn34)CC2)c1C	105	0	109	90
CC(=O)Nc1ccccc1OCC(O)CS(=O)(=O)c1ccc(C(F)(F)F)cn1 (stereo not drawn)	99	-7	94	97
O=C(O)Cc1cc(=O)n(-c2ccccc2)[nH]1	·	1	85	85
CC1(C)SC(CNC(=O)Cc2ccccc2)NC1C(=O)O (stereo not drawn)	104	-10	103	88
COC(=O)c1c(C)nc(C)c(C(=O)OC)c1-c1csc(S(=O)(=O)N2CCOCC2)c1	108	-19	85	87
O=C(Nc1ccc(OC(F)(F)F)cc1)C(Cc1ccccc1)NS(=O)(=O)c1cccc2nsnc12 (stereo not drawn)	106	-4	109	96
CCN(CC)CCNC(=O)c1sc2nc(C)cc(C)c2c1-n1cccc1	99	-8	123	108
C=CCN=C1NN=C(c2cc(C)n(CC=C)c2C)CS1	·	-18	108	89
CN(C)C(=O)COc1ccc2ccc(=O)oc2c1	·	-31	87	90
COc1ccc(OC)c(C2NC(=O)NC(C)=C2C(=O)Nc2cc(C)cc(C)c2)c1 (stereo not drawn)	104	-16	111	95
CCOC(=O)c1cc(C)n(CC2CCC(C(=O)Nc3cccc(C(C)=O)c3)CC2)c1C (stereo not drawn)	99	·	113	84

6 structures already listed, arranged by SMILES length, smallest number first:
SMILES	GIV Gai3 FP	HCMV UL50-53 inh	Sa growth inh	Sa growth inh second temp
O=c1oc(-c2cc3ccccc3s2)ns1	·	-17	81	63
Cn1nccc1C(=O)Nc1ccc(CC#N)cc1	111	7	101	100
O=C(O)Cc1cc(=O)n(-c2ccccc2)[nH]1	·	1	85	85
O=C1CCC(=O)N1CNc1ccc(-c2ccccc2)cc1	·	-29	129	93
CCOC(=O)c1cc(C)n(CC2CCC(C(=O)Nc3cccc(C(C)=O)c3)CC2)c1C (stereo not drawn)	99	·	113	84
COC(=O)c1c(C)nc(C)c(C(=O)OC)c1-c1csc(S(=O)(=O)N2CCOCC2)c1	108	-19	85	87

(next part)
SMILES	GIV Gai3 FP	HCMV UL50-53 inh	Sa growth inh	Sa growth inh second temp
O=C(CSc1ccccc1C(=O)O)NCCc1ccccc1	·	0	77	90
CCc1ccccc1NC(=O)Cn1nnc(C(=O)Nc2ccc(C)c(F)c2)c1N	104	·	98	73
COc1ccc(-c2cc(-c3ccccc3)c(C#N)c(SCC3(O)CCCCC3S(C)=O)n2)cc1 (stereo not drawn)	103	-15	88	84
O=C(CCn1c(=O)sc2cc(S(=O)(=O)N3CCc4ccccc4C3)ccc21)N1CCCC1	107	3	·	·
Nc1ncc(S(=O)(=O)NCc2cccc(Cl)c2)cn1	113	·	113	90
COc1ccccc1Nc1nn2c(=O)c3ccc(C(=O)N4CCCCC4)cc3nc2s1	100	·	103	87
COc1ccc(S(=O)(=O)N2CC(=O)N(c3cccc(Cl)c3)C(C)(C(=O)NC3CCCCC3)C2)cc1 (stereo not drawn)	102	-14	·	·
CCC(C)NC(=O)c1coc2nc3ccccc3nc12 (stereo not drawn)	111	3	79	90
CCC(=O)N1CCN(C(=O)c2ccccc2)CC1	100	-6	·	·
CN(Cc1ccco1)C(=O)CSc1nnc(Cc2ccccc2)o1	·	-11	91	92

Entries of single compounds, looked up by structure:
O=C(CCn1c(=O)sc2cc(S(=O)(=O)N3CCc4ccccc4C3)ccc21)N1CCCC1 as listed: GIV Gai3 FP: 107; HCMV UL50-53 inh: 3; Sa growth inh: ·; Sa growth inh second temp: ·
O=C(CSc1ccccc1C(=O)O)NCCc1ccccc1 as listed: GIV Gai3 FP: ·; HCMV UL50-53 inh: 0; Sa growth inh: 77; Sa growth inh second temp: 90
CCC(C)NC(=O)c1coc2nc3ccccc3nc12 (stereo not drawn) as listed: GIV Gai3 FP: 111; HCMV UL50-53 inh: 3; Sa growth inh: 79; Sa growth inh second temp: 90

Additional results
SMILES	GIV Gai3 FP	HCMV UL50-53 inh	Sa growth inh	Sa growth inh second temp
CNC(=O)c1c(C)nc(SCC(=O)Nc2ccccc2Cc2ccccc2)c(C#N)c1-c1ccco1	·	9	106	108
Cn1c(=O)c2c(SCC(=O)NCc3ccco3)nc(-c3ccccc3F)nc2n(C)c1=O	97	·	78	87
Cc1nc(=O)cc(-c2ccccc2)n1C	·	-2	75	91
COC(=O)CCC1CCC(CCC(=O)OC)C1=O (stereo not drawn)	100	2	105	104
O=C(CCSCc1cnn(-c2ccccc2)c1-n1cccc1)NCC1CCCO1 (stereo not drawn)	110	·	103	88
COC(=O)C1=C(C)NC2=C(C(=O)CCC2)C1c1cn[nH]c1 (stereo not drawn)	99	-21	97	84
CCOC(=O)c1sc(NC(=O)c2sc(C)nc2C)c(C(=O)OCC)c1C	108	-13	·	·
Cc1cc(C)cc(C(=O)OCC(=O)Nc2cccc(C(F)(F)F)c2)c1	·	12	112	97
CS(=O)(=O)Nc1ccc(C(=O)NC23CC4CC(CC(C4)C2)C3)cc1	103	-26	97	95
O=C(O)CC1Oc2ccccc2NC1=O (stereo not drawn)	99&112	-7	99	86

Reformatted with each value named: entries from further up.
smiles: CNC(=O)c1c(C)nc(SCC(=O)Nc2ccccc2Cc2ccccc2)c(C#N)c1-c1ccco1
- GIV Gai3 FP: ·
- HCMV UL50-53 inh: 9
- Sa growth inh: 106
- Sa growth inh second temp: 108

smiles: CS(=O)(=O)Nc1ccc(C(=O)NC23CC4CC(CC(C4)C2)C3)cc1
- GIV Gai3 FP: 103
- HCMV UL50-53 inh: -26
- Sa growth inh: 97
- Sa growth inh second temp: 95

smiles: O=C(CCSCc1cnn(-c2ccccc2)c1-n1cccc1)NCC1CCCO1 (stereo not drawn)
- GIV Gai3 FP: 110
- HCMV UL50-53 inh: ·
- Sa growth inh: 103
- Sa growth inh second temp: 88

smiles: Cc1nc(=O)cc(-c2ccccc2)n1C
- GIV Gai3 FP: ·
- HCMV UL50-53 inh: -2
- Sa growth inh: 75
- Sa growth inh second temp: 91

(listing goes on)
SMILES	GIV Gai3 FP	HCMV UL50-53 inh	Sa growth inh	Sa growth inh second temp
O=c1cc(C(F)(F)F)nc2c(-c3ccccc3)c(C(F)(F)F)[nH]n12	99	-23	139	76
O=C(CCn1c(=O)sc2ccccc21)n1c(=O)sc2ccccc21	·	6	98	90
CC(=O)c1ccc(NC(=O)C2=CC(c3ccc(C)cc3)=NS(=O)(=O)N2C)cc1	99	-28	123	88
Cc1cccc(NC(=O)Cc2csc(C)n2)c1	135&138	-14&-6	111	84
CCc1cc(=O)[nH]c(SCc2nc(-c3ccccc3)no2)n1	100	·	79	94
CC(C)Cn1c(SCC(=O)N(C)C2CCCCC2)nc2ccccc2c1=O	·	-20	91	85
Cc1ccc(-n2ncc3c(NC(C)C)ncnc32)cc1	100	0	92	88
Cc1[nH]n(-c2nc3ccccc3[nH]2)c(=O)c1C1OC(=O)c2ccccc21 (stereo not drawn)	97	-12	46	36
CCCCN1C(=O)C(O)(CC(=O)c2ccc(CC)cc2)c2cc(Br)ccc21 (stereo not drawn)	105	-8	81	73
CCN1CCN(C(=O)c2sc3nc4n(c(=O)c3c2C)CCC4)CC1	104	-12	102	86
O=C(N/N=C/c1ccccc1)c1cc(-c2ccccc2)n[nH]1	103	-5	94	99
O=c1cc(O)c2sc3nc4c(c(C(F)(F)F)c3c2[nH]1)CCC4	104	-60	103	80
CCOC(=O)c1c(/C=C2\C(=O)Nc3ccccc32)c(C)n(Cc2cccs2)c1C	107	-17	103	86
Cc1ccc(NC(=O)c2ccc(CN3CC(=O)N4CCCCC4C3=O)cc2)cc1C (stereo not drawn)	105	·	104	91
CC(C)C(=O)Nc1c(C(=O)c2ccc(Br)cc2)oc2ccccc12	102	-7	103	95
COC(=O)N/N=C\c1c(C)n(C)c2ccccc12	100	-48	88	83
C=C(C)CSc1nc(C)cc(C)c1C#N	100	0	101	87
Cc1ccccc1NS(=O)(=O)c1ccc2[nH]cc(C(=O)NC3CCCC3)c(=O)c2c1	100	-11	96	59
Cc1cc(=O)oc2c1cc(NC(=O)c1ccccc1)c1occ(OC(=O)c3ccccc3)c12	·	-7	96	83
N#Cc1c(-c2cccc(O)c2)c(C#N)c2nc3ccccc3n2c1N	·	-31	115	96
CC1CCCCC1NC(=O)COc1ncnc2sccc12 (stereo not drawn)	·	-13	84	96
COc1ccc2c(c1)CC/C(=C\c1ccc(C)o1)C2=O	100	2	100	86
Cc1nc(-c2ccc(S(=O)(=O)N3CCCN(C(=O)OC(C)(C)C)CC3)s2)cs1	101	-12	98	98
CCSC1=C(C#N)C(=O)NC(c2ccc(O)cc2)S1 (stereo not drawn)	101	34	42	10
O=C(CCc1nc2sc3c(c2c(=O)[nH]1)CCCCC3)Nc1ccc(F)cc1	98	-26	·	·
N#Cc1ncoc1-c1ccc(Cl)cc1	99	-16	119	94
Nn1c(-c2cccs2)n[nH]c1=S	·	2	85	97
CN(Cc1ccccc1)C(=O)CCCn1c(=O)[nH]c2cc(Cl)ccc2c1=O	105	-1	107	82

Source: PubChem

Compounds were not picked by outcome, and some 0.8% of all compounds hit somewhere here.
